# S aureus helic: inhibitors of S. aureus replicative helicase, primary screen, biochemical, fluorescence unwinding readout. replicative DNA helicase (DnaC/DnaB), Staphylococcus aureus. purified S. aureus helicase, fluorescence unwinding assay; about half of the hits fall short of the stated cut. inhibition, %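 (tested at about 80 µM)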. 120,000 tested, 0.05% active;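 active means both duplicates at 50% or more, or one of them with a favoured structure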;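 further: 0% = mean of negative control wells and 100% = mean of positive control wells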
# MgrA-DNA mod: S. aureus MgrA activity modulators, primary screen, biochemical, S. aureus Newman, fluorescence polarization. AID 602314, 2012. 84,000 tested, 0.13% active. MgrA-DNA binding. inhibition, %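 (about 10 µg/mL by stock and volumes)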;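 active means above 50% in either of two replicates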;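 further: 0% = protein plus DNA without compound and 100% = DNA alone without protein; higher means less MgrA bound to DNA so lower polarization; one replicate is shown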
# Numbers without * were called inactive; / = not tested or not shown.
SMILES,S aureus helic,MgrA-DNA mod
O=C(Nc1ccc(CN2CCS(=O)(=O)CC2)cc1)c1ccc(Cl)cc1,9,/
Cn1c(=O)c2nc3ccc(N=Cc4c(O)n(Cc5ccccc5)c(=O)[nH]c4=O)cc3nc2n(C)c1=O,-77,/
COc1cccc(C(=O)Nc2nc(-c3cccs3)cs2)c1,-13,/
Cc1ccc(-n2c(CNC(=O)c3cccs3)nnc2SCC(=O)NO)cc1,6,/
N#Cc1ccsc1NC(=O)C1CCC1,15,/
CCN(C(=O)c1cc(S(=O)(=O)N2CCc3ccccc32)cn1C)c1ccccc1,-6,0.2
Cc1cccc(N(C)S(=O)(=O)c2ccc(CN3C(=O)c4cccnc4C3=O)cc2)c1,28,/
O=C(CC1Nc2ccccc2NC1=O)Nc1ccccc1 (stereo unspecified),8,/
COc1cc(-c2nc3ccccn3c2NC2CCCC2)ccc1O,11,3.4
CC(C)(C)c1cc2nc(C(F)(F)F)cc(=O)n2[nH]1,/,-2.5
Cc1cccc(NC(=O)CSc2nnc(-c3ccoc3C)n2CC(C)C)c1C,0,1.0
NC(=O)C(c1ccc(F)cc1)c1ccc(C(=O)c2ccccc2)cc1 (stereo unspecified),/,0.2
CC(C)(C)c1nc(N)nc(=O)[nH]1,/,-1.8
CC(C)CNC(=O)CCc1nc(-c2ccccc2)no1,13,/
CCOC(=O)c1ncn2c1C(=O)OC2(C)C,13,-3.4
CCn1c(CCCNC(=O)c2cccc(C)c2)nc2ccccc21,-3,/
CC(C(=O)OCC(=O)n1c2c(c3ccccc31)CCCC2)N1C(=O)c2ccccc2C1=O (stereo unspecified),-7,2.1
CC(=O)Nc1ccc(NC(=O)C(C)OC(=O)c2ccc(S(=O)(=O)N3CCCCC3)cc2)cc1 (stereo unspecified),-18,/
CC1(C)CC(C(CC(=O)N2CCCC2)Cc2ccccc2)CCO1 (stereo unspecified),4,/
CCCC(C(=O)NC1=NCCS1)c1ccccc1 (stereo unspecified),-6,/
O=C(CSc1ncnc2c1oc1ccccc12)OCc1c(F)cccc1Cl,7,/
N#C/C(=C\N1CCN(c2ccccc2)CC1)S(=O)(=O)c1ccc(F)cc1,-27,/
CN(C(=O)CCCN1C(=O)c2ccccc2C1=O)C1CC(C)(C)N(C)C(C)(C)C1,-14,/
CSc1oc(-c2ccco2)nc1S(=O)(=O)c1ccc(F)cc1,16,/
COc1ccc(NC(=O)c2cccs2)cc1OC1CCCC1,/,0.2
O=c1c2cc(NC(=S)NCC3CCCO3)ccc2nc2n1CCCCC2 (stereo unspecified),14,-3.6
S=C(NCc1ccccc1)NCc1ccccn1,/,0.4
COc1ccc(CCNC(C#N)c2cc(Br)ccc2O)cc1OC (stereo unspecified),/,1.6
CC1CCCC(C)N1CC(=O)O (stereo unspecified),18,-2.0
COc1cc(OC)c(NC(=O)CN2CC(c3ccccc3)CC2=O)cc1Cl (stereo unspecified),36,/
CCCN1CCC(NC(=O)C2CCN(C(C)=O)CC2)CC1,8,-1.5
O=C(Nc1nnc(C2CC2)o1)c1ccc(S(=O)(=O)N2CCCc3ccccc32)cc1,6,/
Cc1ccc2[nH]c(=O)c(CN3CCCCC3)c(-c3ccccc3)c2c1,0,/
CCOC(=O)CSc1nc2c(c(=O)n1-c1ccccc1)C(=O)C1COC(C)(C)CC1=N2 (stereo unspecified),4,0.2
O=C1NCC(=O)N2CCCC12 (stereo unspecified),8,/
Nc1nc(-c2ccc(Cl)cc2)cc(C(F)(F)F)n1,/,-3.5
Cc1oc(-c2cccc(C(F)(F)F)c2)cc1C(=O)NC(C)C,3,-3.4
COc1cc(Cl)c(C)cc1NC(=S)N(CCN1CCCCCC1)Cc1ccco1,-24,/
CCCCOC(=O)c1ccc(NC(=O)CSCc2n[nH]c(=O)[nH]2)cc1,10,-4.5
C/C(CCc1ccc2c(c1)OCO2)=N\NC(=O)c1cc2c3ccccc3n(C)c2s1,-2,/
Cc1nc2c3c(-c4ccccc4)nc(N4CCCCCC4)nc3nn2c(C)c1CCC(=O)O,34,/
O=C(COc1ccccc1/C=C1\N=C2CCCCCN2C1=O)N1CCCC1,11,/
CC1CCc2cc(F)ccc2N1C(=O)C12CCC(C)(C(=O)C1)C2(C)C (stereo unspecified),10,-0.5
O=C1c2ccccc2C(=O)c2cc(S(=O)(=O)Nc3cccc4cccnc34)ccc21,/,3.2
O=C(NC1CCCC1)c1cc2ccccc2oc1=O,9,-1.6
Cc1ccc(S(=O)(=O)Cc2ccc(C(=O)N3CCc4ccccc4C3)o2)cc1,7,/
COc1ccc(-n2cnc3cc(NC(=O)c4ccco4)ccc32)cc1,1,-4.3
CCOC(=O)C1(C(F)(F)F)N=C(N2CCOCC2)Oc2c1c(C)nn2-c1ccccc1 (stereo unspecified),30,/
CNc1nc2c(c(=O)[nH]c(=O)n2C)n1CCCCCn1c(NC)nc2c1c(=O)[nH]c(=O)n2C,/,-1.9
CCC(C(=O)Nc1ccccn1)c1ccccc1 (stereo unspecified),13,1.9
COc1ccc(C(=O)N2CCc3cc(OC)c(OC)cc3C2C)c(OC)c1 (stereo unspecified),20,/
O=C(Nc1ccc(-c2cn3cccnc3n2)cc1)C1CCCCC1,8,/
Cc1ccc2c(c1)cc(CN(Cc1ccco1)C(=O)c1ccccc1)c1nnnn12,-1,21
CCOC(=O)C(C#N)c1ccccn1 (stereo unspecified),/,3.0
OC(COc1ccc(-c2csnn2)cc1)CSc1ccccc1 (stereo unspecified),/,-3.9
CC(C)N1CC(COc2ccc(F)cc2)OC1=O (stereo unspecified),8,/
CC1=C(C(=O)Nc2cccc3ccccc23)C2(CCN(C(C)C)CC2)OC1=O,-9,/
CCOC(=O)CNc1cccc(Cl)c1,1,2.9
COc1ccc(-n2cnc3sc4c(c3c2=O)CCCC4)cc1,7,1.1
CCCC(=O)NCc1ccc2c(c1)cc(C)n2C,8,/

# Compound profiles (already shown):
# CCOC(=O)C(C#N)c1ccccn1 (stereo unspecified) as listed: S aureus helic = /; MgrA-DNA mod = 3.0
# CC1=C(C(=O)Nc2cccc3ccccc23)C2(CCN(C(C)C)CC2)OC1=O as listed: S aureus helic = -9; MgrA-DNA mod = /

# (list continues)
SMILES,S aureus helic,MgrA-DNA mod
N#CC(C#N)=Cc1cn(CCCOc2ccccc2Cl)c2ccccc12,4,-2.8
Nc1nc2ccccc2n1Cc1ccc(Cl)cc1,28,-2.2
CCN(Cc1ccccc1)S(=O)(=O)c1ccc2oc(C(=O)O)c(C)c2c1,3,/
CCOC(=O)c1c(NC(=O)C(F)(F)F)sc2c1CCCC2,/,-1.5
O=C(Nc1ccccc1C(=O)NC1CCSC1)c1cccc(Cl)c1 (stereo unspecified),/,-2.9
O=C(c1ccccc1)N(Cc1ccco1)C1CCS(=O)(=O)C1 (stereo unspecified),19,-1.1
N#CCN(CC#N)S(=O)(=O)c1ccccc1,2,0.4
COc1cc2c(cc1OC)C(C(=O)Nc1cc(C)c(OC)c(C)c1)CC(=O)N2 (stereo unspecified),2,-0.7
N/C(COc1ccccc1)=N\O,/,1.1
O=C1C=CC(=O)C(CCCCCCC2=CC(=O)C=CC2=O)=C1,24,/
Cc1cc(NC(=O)COc2ccccc2)n(-c2ccccc2)n1,-25,-0.2
CCOc1ccc(/C=C2\N=C(c3cc([N+](=O)[O-])ccc3Cl)OC2=O)c(OC(C)=O)c1,/,0.6
O=C(Nc1ccccc1F)C(Cl)Cl,/,-0.7
CC1CCCC(C)N1C(=O)CSc1nc2ccccc2s1 (stereo unspecified),6,1.9
CCc1ccc(S(=O)(=O)NCC(O)c2ccccc2)cc1 (stereo unspecified),/,0.3

# Filtered by structure, the entries above containing a Cl atom
SMILES,S aureus helic,MgrA-DNA mod
O=C(Nc1ccc(CN2CCS(=O)(=O)CC2)cc1)c1ccc(Cl)cc1,9,/
O=C(CSc1ncnc2c1oc1ccccc12)OCc1c(F)cccc1Cl,7,/
COc1cc(OC)c(NC(=O)CN2CC(c3ccccc3)CC2=O)cc1Cl (stereo unspecified),36,/
Nc1nc(-c2ccc(Cl)cc2)cc(C(F)(F)F)n1,/,-3.5
COc1cc(Cl)c(C)cc1NC(=S)N(CCN1CCCCCC1)Cc1ccco1,-24,/
CCOC(=O)CNc1cccc(Cl)c1,1,2.9
N#CC(C#N)=Cc1cn(CCCOc2ccccc2Cl)c2ccccc12,4,-2.8
Nc1nc2ccccc2n1Cc1ccc(Cl)cc1,28,-2.2
O=C(Nc1ccccc1C(=O)NC1CCSC1)c1cccc(Cl)c1 (stereo unspecified),/,-2.9
CCOc1ccc(/C=C2\N=C(c3cc([N+](=O)[O-])ccc3Cl)OC2=O)c(OC(C)=O)c1,/,0.6
O=C(Nc1ccccc1F)C(Cl)Cl,/,-0.7

# Following part
SMILES,S aureus helic,MgrA-DNA mod
CC1(C)C2CCC1(C)C(OC(=O)CSc1ncn[nH]1)C2 (stereo unspecified),6,1.6
O=C(Oc1ccccc1)C(c1ccccc1)c1ccccc1,15,-0.3
COc1ccc(C(=O)CSc2nc3ccccc3n2C)c(F)c1,7,/
Cn1c(C2CC(=O)N(CCc3ccccc3)C2)nc2ccccc21 (stereo unspecified),6,2.7
CCOC(=O)Cn1c(=NC(=O)c2ccccc2Br)sc2cc(C)ccc21,-5,/
O=C(O)CCc1nc(-c2cc(C(F)(F)F)cc(C(F)(F)F)c2)no1,/,-1.4
COc1ccc(N/C=C/C(=O)c2ccc3c(c2)OCO3)cc1OC,7,-0.1
O=C(c1nn2c(C(F)(F)F)cc(-c3ccc(Cl)cc3)nc2c1Cl)N1CCOCC1,/,-0.2
Cc1cn2c(=O)c(C(=O)NCCCN3CCN(CCCNC(=O)c4cnc5sc(C)cn5c4=O)CC3)cnc2s1,4,/
C=CCn1c(-c2ccncc2)nn(CN2CCCC(C(=O)OCC)C2)c1=S (stereo unspecified),18,/
COc1ccc(-c2cc(C(=O)Nc3cc(Cl)ccc3OC)c3ccccc3n2)cc1,5,1.4
COC(CNC(=O)c1ccc2c(c1)C(=O)N(CCc1ccccc1)C2=O)OC,35,/
CC(C)Cc1cc(C(=O)Nc2cc(Br)ccc2O)no1,13,/
CCOC(=O)c1ccc(S(=O)(=O)NNS(=O)(=O)c2ccc(C)cc2)cc1,-11,/
Nc1ccc(N2CCCCC2)cc1,-16,-0.9

# Taken from above.
# Cn1c(C2CC(=O)N(CCc3ccccc3)C2)nc2ccccc21 (stereo unspecified) in S aureus helic = 6
# CCOC(=O)c1ccc(S(=O)(=O)NNS(=O)(=O)c2ccc(C)cc2)cc1 in S aureus helic = -11
# COc1ccc(N/C=C/C(=O)c2ccc3c(c2)OCO3)cc1OC in MgrA-DNA mod = -0.1
# O=C(Oc1ccccc1)C(c1ccccc1)c1ccccc1 in MgrA-DNA mod = -0.3
# COc1ccc(C(=O)CSc2nc3ccccc3n2C)c(F)c1 in S aureus helic = 7
# CC(C)Cc1cc(C(=O)Nc2cc(Br)ccc2O)no1 in S aureus helic = 13
# Nc1ccc(N2CCCCC2)cc1 in S aureus helic = -16

# Later entries.
SMILES,S aureus helic,MgrA-DNA mod
O=C(NCc1ccccc1)C(Cc1ccccc1)NS(=O)(=O)c1cccc2nsnc12 (stereo unspecified),15,2.0
COc1ccc(NC(=O)N2c3ccccc3Sc3ccccc32)cc1,2,0.0
CC1CC2c3cccc(C(=O)O)c3C(=O)N2Cc2ccccc21 (stereo unspecified),9,/
CCOc1ccc(C(=O)O)o1,19,-3.6
COc1ccc(-c2csc(NC(=O)C3CCCCC3)n2)cc1,6,2.7
COc1ccccc1CNC(=O)COC(=O)Cc1ccsc1,-6,/
O=C(O)CSc1ccc(F)cc1Cl,/,-0.6
O=C(O)c1ccccc1C(=O)Nc1ccc(-n2nccc2C(F)(F)F)cc1,/,-5.3
CC1(C)C2CCC1(CS(=O)(=O)Nc1ccc(F)c(Cl)c1)C(=O)C2 (stereo unspecified),-12,/
Cc1nn(-c2ccccc2)c2sc(C(=O)NCCCN3CCCC3=O)cc12,-1,-1.3
Cc1cc(C)cc(-n2c(SCC(=O)Nc3ccccc3C(F)(F)F)nc3c(c2=O)SCC3)c1,-14,1.9
CNC(=O)/C(=C\c1ccc(Cl)cc1)NC(=O)c1ccco1,2,1.2
Oc1cccc(-c2nc3cnccn3c2Nc2ccccc2)c1,7,/
Cc1ccc(NC(=O)NC(=O)Cn2ccsc2=N)c(C)c1,2,/
CC1CN(CC(=O)C(C#N)c2ccccc2)CC(C)O1 (stereo unspecified),3,1.1
COc1ccc(N2C(=O)CSC2c2ccc(Br)cc2)cc1Cl (stereo unspecified),/,-0.4
CN(C)S(=O)(=O)N1CCn2cccc2C1c1ccccc1 (stereo unspecified),5,/
CC(C)(C)n1cnc2cc(NCc3ccccn3)ccc21,6,-0.5
COC(=O)c1ccc(N=C2SC(C(=O)Nc3ccc(C)c(Cl)c3)CC(=O)N2C)cc1 (stereo unspecified),/,0.4
Cc1ccc(S(=O)(=O)Nc2cc(-c3ccccc3)nn2C)cc1Cl,-11,/
Cc1ccc(S(=O)(=O)NC(Cc2ccccc2)C(=O)NN)cc1 (stereo unspecified),-1,1.8
CC1CCC/C(=C/Nc2ccc3c(c2)OCO3)C1=O (stereo unspecified),15,-1.7
CN1/C(=C2/SC(=S)N(N)C2=O)Sc2ccccc21,5,4.4
Nc1nc(NCc2cccs2)nn1-c1ccccc1,12,/
Cc1cc(C)cc(NC(=O)c2ccc3c(c2)NC(=O)c2ccccc2S3)c1,4,-0.3
COc1ccc(C(=O)c2coc3ccc(O)c(CN4CCCC4)c23)cc1,3,1.0
CCOC(=O)c1c(C)[nH]c(C(=O)CSc2nc3ccccc3o2)c1C,-9,/
O=C(NCc1cccnc1)c1ccc(COc2ccc3c(c2)CCC3)o1,2,/
O=C(COc1ccccc1)OCCN1CCCC1=O,-32,-1.6
O=C(c1ccc(C#Cc2ccccc2)o1)N1CCOCC1,/,-0.2
O=C(COc1ccc(F)cc1)Nc1ccc2c(c1)OCCO2,-11,1.5
CN(C)C(=O)CSc1nnc2c(Cl)cc(Cl)cn12,2,/

# Some of the compounds tested. The share of hits here may be higher or lower than overall.
